RN4220 kill = growth inhibition of S. aureus RN4220, primary screen, OD600 | 16 h | inhibition, % (concentration not given with the values) | 330,000 tested, 0.33% active | AID 1259311, 2017;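 active = z-score of -3 or lower and OD600 up to 0.18 on both plates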;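 also: plate controls were untreated cells for no effect and reference antibiotic for full effect; stock transfer was 100 nL into about 80 µL; one replicate is shown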
PrP 5UTR inh = inhibition of PrP 5' UTR reporter expression; inhibition, % (concentration not given with the values); 340,000 tested, 0.35% active; cell-based PrP 5' UTR mRNA reporter, plate reader; AID 488862, 2010;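 active = every replicate at 50% or more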;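 also: 0 = median of the neutral control wells; tested in H4 reporter cells; numbers are from one replicate; inactives centre near -14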
ugtP null kill = growth inhibition of ugtP-null S. aureus, primary screen, RN4220 ugtP deletion, OD600; growth inhibition, % (no concentration beside the values); 16 h; some inactives read as strong as hits; 330,000 tested, 0.54% active; AID 1259309, 2017;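 active = z-score under -3 and OD600 up to 0.15 on both plates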;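 also: plate controls were untreated wells for no effect and antibiotic for full effect; wells of about 80 µL received 100 nL stock; the first replicate is given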
BJeLR lethal = MLPCN primary cell-based screen for lethality selective to Ras in HRASV12 cells; BJeLR (HRASV12) viability, CellTiter-Glo ATP luminescence, 48 h; reference of the scale not given here; inhibition, % (test concentration not listed); 300,000 tested, 0.17% active;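 active = replicate mean above 50%; inconclusive = above 50% but judged a plate artefact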;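 also: 50 nL library stock added to about 25 µL; numbers are from one replicate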
Mtb hypoxia rep = PubChem AID 1159583; fluorescence inhibition, % (test concentration not listed); M. tuberculosis hypoxia-regulated fluorescent reporter, fluorescence; 300,000 tested, 0.1% active;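 active = 35 to 45% if threefold the growth effect, above 45% if 1.5-fold the growth effect; inactive = the rest, general growth blockers included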;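 also: wells of about 50 µL received 100 nL stock; 0% = vehicle wells and 100% = reference inhibitor wells; whole bacteria with a GFP reporter of the hypoxia response; strong numbers were not always called active; many hits fall short of the cut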
Autofluor counter = counter-screen for toxin protease inhibitors: compound fluorescence; compound autofluorescence counterscreen, microsphere flow cytometry; active compounds read high; fluorescence intensity (no concentration beside the values); 360,000 tested, 3.1% active;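 active = at least 3 SD above the mean of all compounds, about 16000 in these data; inconclusive = too few beads counted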;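 also: 100 nL of 1 mM stock went into each well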
Mtb hypoxia rep growth = also measured in Mtb hypoxia rep; calls as there; growth inhibition, %; measured here: M. tuberculosis growth (absorbance);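 0% = vehicle and 100% = reference antibiotic; read after six days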
Active calls of the source: *; ? = inconclusive; . = not tested or not shown; & = joins results of further samples. Outcome played no part in choosing rows. About 4% of those tested had a hit in this group.

Screens in order: RN4220 kill | PrP 5UTR inh | ugtP null kill | BJeLR lethal | Mtb hypoxia rep | Mtb hypoxia rep growth | Autofluor counter
O=C(NCc1ccncc1)c1cc(C(=O)C2CCCCC2)c[nH]1
→ 2.7 | -16 | 7 | -6 | 7 | 15 | 4500
COc1cc2c(cc1OC)C1=C(C#N)CC/C(=N\S(=O)(=O)c3ccccc3)N1CC2
→ . | -5 | . | 1 | . | . | 6564
CN1CCCN(C(=O)c2cccc3ccccc23)CC1
→ 0.0 | -23 | 9 | 8 | -5 | -9 | 3321
O=C(/C=C/c1ccc2c(c1)OCO2)N1CCN(c2n[nH]c(=O)[nH]c2=O)CC1
→ 4.0 | -26 | 8 | -5 | 6 | 9 | 4908
C/C(=N\NC(=S)NC1CCCCC1)c1ccccc1
→ . | -6 | . | -22 | . | . | 2398
O=C1CN(C(=O)c2ccccc2)C(c2ccccc2)c2cc(Cl)ccc2N1 (centres undefined)
→ 4.5 | -19 | 8 | 2 | -1 | -9 | 2965
Cc1cccc(OCCOC(=O)C2CCN(S(=O)(=O)c3cccs3)CC2)c1
→ 1.7 | -6 | 2 | -1 | . | . | 2310
Cc1cccc(N2CCN(C(=O)CC(NC(=O)c3ccccc3)c3ccccc3)CC2C)c1 (centres undefined)
→ -1.7 | -35 | -1 | -2 | 14 | 5 | 2099
CCC=CC(=O)N1CC2(CC(c3cccc(NC(=O)CC(c4ccccc4)c4ccccc4)c3)=NO2)CC1C(N)=O (centres undefined)
→ 6.4 | . | 4 | . | 10 | 13 | .
O=C(NN1C(=O)c2ccccc2NC1c1ccc([N+](=O)[O-])o1)c1ccc([N+](=O)[O-])cc1 (centres undefined)
→ 26 | -14 | 10 | 1 | 2 | 1 | 4613

Continuation.
Screens in order: RN4220 kill | PrP 5UTR inh | ugtP null kill | BJeLR lethal | Mtb hypoxia rep | Mtb hypoxia rep growth | Autofluor counter
S=c1[nH]nc(-c2ccccn2)n1/N=C/c1ccccc1
→ . | -15 | . | 2 | . | . | 8984
O=C(Nc1ccc2c(c1)CCC2)c1cccc(F)c1
→ 9.6 | -79 | 11 | -29 | 6 | 11 | 2520
CC(=O)CSc1nnc(-c2cnccn2)n1-c1ccccc1
→ 2.7 | -29 | 4 | 5 | 2 | 1 | 3674
O=[N+]([O-])c1cccc2cnccc12
→ -0.2 | -10 | 1 | . | 14 | 11 | 2964
Cc1nc(-c2ccccc2)nc2n[nH]c(N)c12
→ 5.9 | -30 | -2 | 0 | 8 | -3 | 3195
COc1ccc(S(=O)(=O)Nc2cccc3c2O[C@H](CN(C)CC2CC2)[C@@H](C)CN([C@H](C)CO)C3=O)cc1
→ -12 | -24 | 1 | . | 8 | -2 | 2827
O=S(=O)(N=C(c1ccccc1)N1CCOCC1)c1ccc(Cl)cc1
→ 4.7 | . | 6 | . | 4 | 4 | .
COc1cccc(Nc2nc3ccccc3n3cnnc23)c1
→ 5.5 | -25 | 4 | -2 | -5 | 6 | 4642
COC(=O)CCCC(=O)N(C)CC1CCCN(CCc2ccccc2C)C1 (centres undefined)
→ . | -23 | . | -3 | . | . | 4184
COc1ccc(CC(=O)Nc2ccc(S(=O)(=O)Nc3nc(C)cc(C)n3)cc2)cc1
→ 2.1 | -19 | 1 | . | 0 | 5 | 19652*

(more compounds)
Screens in order: RN4220 kill | PrP 5UTR inh | ugtP null kill | BJeLR lethal | Mtb hypoxia rep | Mtb hypoxia rep growth | Autofluor counter
CN(C)c1ccc(NC(=O)c2ccc([N+](=O)[O-])cc2Cl)cc1
→ 8.5 | -60 | 0 | 7 | 13 | 8 | 1947
CC1CC(C)(C)NC(=S)N1CCC(=O)N1CCN(c2ccccc2)CC1 (centres undefined)
→ 4.2 | -16 | 4 | -10 | 11 | 4 | 4269
CC(C)c1ccc(NC2CCCN(C(=O)c3cccc4nccnc34)C2)cc1 (centres undefined)
→ -1.9 | -23 | -1 | 11 | -5 | -7 | 5019
Cc1nc2ccccn2c1P(=S)(N1CCCCC1)N1CCCCC1
→ 10 | -3 | 4 | 1 | -8 | 8 | 4710
Cc1ccc(C(OCCN(C)C)c2cccc(C(F)(F)F)c2)cc1 (centres undefined)
→ -2.2 | -24 | -6 | 13 | 9 | 0 | 2112
CCSc1nnc(NC(=O)NC2CCCCC2)s1
→ 12 | -36 | 10 | 15 | 2 | 6 | 4720
COCCOC(=O)c1c(C)oc2ccc(OC(=O)c3ccco3)cc12
→ 9.0 | -6 | 9 | 3 | 5 | 5 | 2630
O=C(CCCCN1CCCCC1)c1ccc2c(c1)Cc1ccccc1-2
→ 3.5 | -12 | 6 | 8 | 17 | 1 | 4723
CN1CCN(C(=O)c2cnn(-c3ccccc3)c2NC(=O)c2ccccc2)CC1
→ 7.4 | -4 | 7 | -5 | 3 | -3 | 2211
N=c1n(CC(=O)c2ccc([N+](=O)[O-])cc2)c2ccccc2n1Cc1ccccc1Cl
→ -0.9 | 8 | -18 | . | 1 | 2 | 2021

Later entries:
Screens in order: RN4220 kill | PrP 5UTR inh | ugtP null kill | BJeLR lethal | Mtb hypoxia rep | Mtb hypoxia rep growth | Autofluor counter
c1coc(-c2nnc(-c3ccco3)nn2)c1
→ 0.8 | -20 | -1 | 3 | 2 | 8 | 6124
C[C@@H]1CC=C[C@H]2[C@H]1C(=O)N(Cc1ccccc1)[C@H]2c1ccc2ccccc2c1/C=C/c1ccccc1
→ . | -2 | . | -3 | . | . | 4107
COc1cccc(OCCNC(=O)Nc2cc(F)c(F)cc2Cl)c1
→ 2.1 | -25 | -3 | 1 | 2 | 4 | 4329
CC(=O)c1cc2c(cc1N(C(=O)Cn1nnc3ccccc31)C(C(=O)NCCC(C)C)c1cccnc1)OCO2 (centres undefined)
→ -0.6 | -8 | -1 | -5 | -4 | -2 | 4619
CCC(=O)OCc1c(C(F)(F)F)nn(C)c1Oc1cccc(C(F)(F)F)c1
→ 7.5 | -19 | 4 | -4 | 3 | 10 | 18080*
CC1=CC(C)C2C(=O)N(CCCN(C)C)C(=O)C2C1 (centres undefined)
→ 0.2 | -16 | -4 | 1 | . | . | 2235
Cc1cccc(CN2C(=O)C3Cc4c([nH]c5ccccc45)C(C)(C)N3C2=O)c1 (centres undefined)
→ -13&-3.9 | . | -2&-15 | . | 8&11 | 11&4 | .
COc1ccc(C2=NS(=O)(=O)N(C)C(C(=O)N(C)Cc3ccccc3)=C2)cc1OC
→ 3.8 | -5 | -5 | 1 | . | . | 6121
COc1ccc2c(c1)Cc1sc(NC(=O)c3ccccc3)nc1-2
→ -6.1 | -80 | -10 | 4 | . | . | 2696
Nc1c(C(=O)Nc2ccccc2F)sc2nc(-c3cccnc3)ccc12
→ 0.9 | -26 | -6 | 2 | 16 | 4 | 3848

Entries of single compounds from above. Values in the order: RN4220 kill	PrP 5UTR inh	ugtP null kill	BJeLR lethal	Mtb hypoxia rep	Mtb hypoxia rep growth	Autofluor counter
c1coc(-c2nnc(-c3ccco3)nn2)c1 as listed: 0.8	-20	-1	3	2	8	6124
COc1cccc(OCCNC(=O)Nc2cc(F)c(F)cc2Cl)c1 as listed: 2.1	-25	-3	1	2	4	4329
CC(=O)c1cc2c(cc1N(C(=O)Cn1nnc3ccccc31)C(C(=O)NCCC(C)C)c1cccnc1)OCO2 (centres undefined) as listed: -0.6	-8	-1	-5	-4	-2	4619
CCC(=O)OCc1c(C(F)(F)F)nn(C)c1Oc1cccc(C(F)(F)F)c1 as listed: 7.5	-19	4	-4	3	10	18080*

(cont.)
Screens in order: RN4220 kill | PrP 5UTR inh | ugtP null kill | BJeLR lethal | Mtb hypoxia rep | Mtb hypoxia rep growth | Autofluor counter
Cn1c(=O)c2c(nc3n2CC(COc2ccc(Cl)cc2)O3)n(C)c1=O (centres undefined)
→ 2.9 | -30 | 5 | -2 | 9 | 10 | 3717
COc1ccc(CCn2c(O)c(C=NC3CC3)c(=O)[nH]c2=O)cc1OC
→ 1.7 | -10 | 8 | -9 | 6 | -11 | 3180
Cc1ccn2cc(CCNC(=O)C3CCCCC3)nc2c1
→ 6.6 | -21 | 7 | 1 | 3 | 8 | 6885
OCC1(Cc2ccccc2C(F)(F)F)CCN(Cc2ccc3c(c2)CCO3)CC1
→ 1.1 | 10 | -2 | 7 | 10 | 2 | 4430
COc1ccc(C(=O)NNC(=O)CSc2nnc(C)n2C)cc1
→ 5.3 | -27 | 14 | -6 | -3 | -3 | 2356
CCCOc1ccc(/C=N/NC(=O)CN(c2ccc(OCC)cc2)S(C)(=O)=O)cc1
→ . | -12 | . | 13 | . | . | 6780
CCSc1nnc(NC(=O)CCc2ccc(OC)cc2)s1
→ 3.5 | -13 | 3 | -1 | 5 | 6 | 2032
NC(=O)N1CCC2(CC1)NC(=O)N(c1ccccc1)N2
→ 2.2 | -16 | -2 | 6 | 6 | 18 | 4760
COc1ccc(C(=O)NN=Cc2cccc3cccnc23)cc1
→ 9.9 | . | 3 | . | -5 | 16 | .
N#Cc1c(N=Cc2cccs2)sc2c1CCC2
→ 9.3 | . | 6 | . | 6 | 7 | .

Taken from above:
Result for `COc1ccc(C(=O)NNC(=O)CSc2nnc(C)n2C)cc1` under ugtP null kill: 14
Result for `OCC1(Cc2ccccc2C(F)(F)F)CCN(Cc2ccc3c(c2)CCO3)CC1` under RN4220 kill: 1.1
Result for `N#Cc1c(N=Cc2cccs2)sc2c1CCC2` under Mtb hypoxia rep: 6

(further entries)
Screens in order: RN4220 kill | PrP 5UTR inh | ugtP null kill | BJeLR lethal | Mtb hypoxia rep | Mtb hypoxia rep growth | Autofluor counter
CCN(CC)C(=O)C(=O)c1cccn1-c1cccc(-n2cccc2C(=O)C(=O)N(CC)CC)c1C#N
→ 3.8 | -19 | -4 | 8 | -5 | 0 | 3344
O=C(NC(=S)Nc1ccccc1N1CCCC1)c1ccccc1Br
→ . | -3 | . | 7 | . | . | 4620
CCn1c(=O)cc(OCC(=O)NCCCN2CCCC2=O)c2ccccc21
→ 2.5 | -1 | -8 | 13 | 3 | -5 | 4464
Cc1ccnc(Nc2nc3ccccc3o2)n1
→ -14 | -6 | -3 | 10 | 1 | 7 | 5828
Cn1c(SCC(=O)Nc2ccc(F)cc2)nc2c(c1=O)SCC2
→ 1.4 | -8 | 0 | -11 | -8 | 0 | 5815
Cc1ccc(C)c(C(=O)Nc2cc(C)nn2-c2nc(C)cc(C)n2)c1
→ -0.2 | -17 | 11 | 9 | 2 | 13 | 3397
CC(=O)c1ccc(N2C(=O)C3C4C=CC(CC4)C3C2=O)cc1 (centres undefined)
→ 3.3 | -22 | 12 | 7 | 3 | 2 | 3986
Cc1cc(C)c(S(=O)(=O)NN=Cc2ccc([N+](=O)[O-])o2)c(C)c1
→ -2.7 | . | 16 | . | -4 | -4 | .
CC1CN(S(=O)(=O)c2cccc(C(=O)N(CCc3ccccc3)Cc3ccccc3)c2)CC(C)O1 (centres undefined)
→ -2.4 | -12 | -9 | 1 | -8 | 3 | ?
CCCN(C(=O)c1cccs1)c1nnc(-c2ccncc2)s1
→ -0.4 | -17 | 11 | 2 | . | . | 4808

Going on with the list:
Screens in order: RN4220 kill | PrP 5UTR inh | ugtP null kill | BJeLR lethal | Mtb hypoxia rep | Mtb hypoxia rep growth | Autofluor counter
CC1CCCN(CC(O)COc2ccc3c(c2)OCO3)C1 (centres undefined)
→ 3.4 | -23 | 3 | 3 | 9 | 4 | 1898
O=C(CSc1nnc(CNC(=O)c2cccs2)o1)Nc1ccccc1C(F)(F)F
→ 3.4 | -7 | -8 | 0 | 8 | 0 | 5551
O=C(NCCN1CCOCC1)c1cc(Sc2ccccc2Cl)nc2ccccc12
→ 6.6 | . | 12 | -6 | 14 | 12 | .
Nn1c(SCc2cc([N+](=O)[O-])cc3c2OCOC3)nnc1-c1cccnc1
→ 4.5 | -13 | 9 | 10 | 4 | 4 | 5730
CCc1c(C(=O)N/N=C/c2cn[nH]c2-c2ccc(F)cc2)csc1C
→ . | -17 | . | 0 | . | . | 2384
Cc1ccc(N(CC(=O)Nc2ccc3c(c2)OCCO3)S(=O)(=O)c2c(C)n[nH]c2C)cc1
→ 4.0 | -19 | 8 | 0 | . | . | 3727
CC(OC(=O)C1CSC2(c3ccc(F)cc3)CCC(=O)N12)C(=O)NC(N)=O (centres undefined)
→ 3.8 | -7 | 4 | -14 | 9 | -2 | 3434

Screening data as filed in PubChem.
